TRPML1 inh – human mucolipin-1 channel inhibition. Q9GZU1. TRPML1-inducible cells, Ca2+ dye fluorescence, FDSS; hits give low values; inhibition of EC80 agonist-evoked calcium signal. activity change, negative = inhibition, % (test concentration not listed). hit rate 0.02% among 390,000; in the data active means activity change below about -50%; inconclusive means about -30% to -50%; inactive means above about -30%;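 note: stimulus is agonist 54-4 at its EC80 concentration; % is set by controls: 0 for no effect and ±100 for the full control effect; compound concentration not given in the record; the text of the record puts the active cut at -80%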
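Tet-induced TRPML1-DL cells loaded with Ca8 no-wash calcium dye were read kinetically on FDSS. Compound addition was followed by EC80 agonist 54-4 (4 uM final); inhibition was read over 110 s.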
Six1-Eya2 blk – Six1/Eya2 interaction inhibition; Q15475+O00167; AlphaScreen GST-Six1/His-Eya2 binding, biochemical; hits give low values; control for the full effect not named in the record; activity change, % (concentration not given with the values); hit rate 0.56% among 360,000; in the data active = activity change below about -65%; inconclusive = about -30% to -65%; inactive = above about -30%; note: % is set by controls: 0 for no effect and ±100 for the full control effect
Target sequence (O00167 whole entry, looked up): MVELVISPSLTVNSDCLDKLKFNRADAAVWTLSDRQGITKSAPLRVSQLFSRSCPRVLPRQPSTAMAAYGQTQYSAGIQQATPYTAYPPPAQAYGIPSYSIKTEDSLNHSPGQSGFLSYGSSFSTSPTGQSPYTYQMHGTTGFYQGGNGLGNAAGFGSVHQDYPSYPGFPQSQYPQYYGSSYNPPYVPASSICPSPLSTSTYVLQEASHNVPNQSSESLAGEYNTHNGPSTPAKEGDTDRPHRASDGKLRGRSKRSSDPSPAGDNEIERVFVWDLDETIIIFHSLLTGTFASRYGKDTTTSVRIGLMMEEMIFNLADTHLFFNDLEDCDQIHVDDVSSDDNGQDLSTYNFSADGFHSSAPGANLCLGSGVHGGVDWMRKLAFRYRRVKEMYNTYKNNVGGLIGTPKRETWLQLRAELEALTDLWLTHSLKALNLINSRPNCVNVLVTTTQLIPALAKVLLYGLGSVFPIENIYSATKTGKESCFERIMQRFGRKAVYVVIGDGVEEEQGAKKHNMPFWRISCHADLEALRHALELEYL
Target sequence (Q15475 whole entry, looked up): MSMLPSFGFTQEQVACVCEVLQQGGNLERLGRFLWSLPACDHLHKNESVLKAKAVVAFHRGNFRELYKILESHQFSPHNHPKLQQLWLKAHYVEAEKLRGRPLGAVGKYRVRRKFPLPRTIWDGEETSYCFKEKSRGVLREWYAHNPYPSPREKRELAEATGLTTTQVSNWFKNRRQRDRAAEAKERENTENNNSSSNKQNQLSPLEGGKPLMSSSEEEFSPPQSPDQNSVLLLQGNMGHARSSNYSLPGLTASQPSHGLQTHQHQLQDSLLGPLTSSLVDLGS
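Homogeneous AlphaScreen proximity assay pairing GST-Six1 with His-tagged Eya2 (added as 5X mix: 250 nM and 500 nM) in 50 mM Tris pH 8.0, 300 mM NaCl, 1 mM TCEP. Glutathione donor and nickel acceptor beads; 1 h, 37 °C, dark.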
PINK1 expr mod – modulators of PINK1 expression | PINK1 immunofluorescence, high-content cytometry, 24 h | Potency, µM (doses to about 76.6 µM), inactives show at the highest dose activation (PINK1 increase), usual class: activators | AID 624263 | hit rate 0.2% among 410,000; active = well fitted activation curve with a large enough effect; inconclusive = small, poorly fitted or top-dose-only effect; inactive = flat fitted curve, though single readings scatter; cell line not stated here;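 note: potency is the fitted concentration of half-maximal effect; % of control where 0% means no effect; nearly all actives have a fitted effect of over 65% in size; a mitochondrial uncoupler was the plate control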
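PINK1 protein level read as immunofluorescence by microplate cytometer in a fixed, stained stable cell line after 24 h exposure to five compound concentrations, with CCCP as control.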
TRPML1 ag – activates the human TRPML1 channel | Q9GZU1 | TRPML1-expressing cells, Ca2+ dye fluorescence, FDSS; host cell line not named in the record; reference of the full effect not given here | activation, % (concentration not given with the values) | hit rate 0.12% among 410,000; in the data active = activation above about 50%; inconclusive = about 30% to 50%; inactive = below about 30%; note: 0% is about no effect; the text of the record puts the active cut at 80%
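Tetracycline-induced TRPML1-DL cells are seeded and incubated overnight before loading with a no-wash Ca2+ dye and quencher. Agonist activity is taken from the 110 s fluorescence read following compound pin-transfer on an FDSS, before EC80 54-4 challenge.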
D2 agonist – agonists of human D2 dopamine receptor (beta-arrestin). P14416. DiscoveRx PathHunter D2 beta-arrestin, luminescence, 90 min; 100% = 57 uM dopamine signal. activation, % (test concentration not listed). hit rate 0.084% among 360,000. AID 624465; in the data active = activation above about 40%; inconclusive = about 15% to 40%; inactive = below about 15%; note: compound concentration not given in the record; the text of the record calls up to 30% inactive
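DiscoveRx PathHunter D2 beta-arrestin cells (2,100/well) attached overnight, then compound-stimulated 90 min at 37 C in HBSS/10 mM HEPES/0.1% Tween-20 buffer; beta-galactosidase complementation read by luminescence after 1 h at ambient temperature. Dopamine 57 uM final (EC100) as control.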
D2 PAM – positive allosteric modulators of human D2 dopamine receptor | P14416 | DiscoveRx D2 beta-arrestin cells, luminescence, 90 min; 100% = 57 uM dopamine signal | potentiation, % (concentration not given with the values) | hit rate 0.23% among 360,000 | AID 624464; active = potentiation of 50% or more; inconclusive = 30% to 50%; inactive = 30% or less;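 note: compound concentration not given in the record; tested on top of an EC20 dose of dopamine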
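PathHunter beta-arrestin assay in DiscoveRx D2 cells. Compounds were added with an EC20 of dopamine (50 nM final) for 90 min at 37 deg C. Luminescence was read 1 h after detection reagent, with 57 uM dopamine as the EC100 control.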
Active calls of the source: *; & = joins results of further samples; [ ] = another dose, or the depositor's remark. An unsorted share of the library. Share with any hit: about 1%.

For O=C(COC(=O)c1ccc(Cl)cc1)NC(=O)NC1CCCC1 the results were TRPML1 inh -10, Six1-Eya2 blk 2, PINK1 expr mod inconclusive, TRPML1 ag 1.1, D2 agonist 2.4 and D2 PAM -3.
`O=C(NCC(F)(F)F)c1ccc(S(=O)(=O)Nc2ccccc2N2CCCC2)cc1` gave TRPML1 inh -13, Six1-Eya2 blk -10, PINK1 expr mod 0.1%, TRPML1 ag -0.3, D2 agonist 2.0 and D2 PAM -3.
`CCCC1=C(C(=O)OCC)C(/C=C/c2ccccc2)n2ncnc2N1` (configuration not stated) gave TRPML1 inh 14, Six1-Eya2 blk -1, PINK1 expr mod inconclusive, TRPML1 ag 0.3, D2 agonist -0.6 and D2 PAM 5.
`CCOC(=O)c1nc(Nc2cccc(C)c2)c2ccccc2n1` gave TRPML1 inh -12&-15, Six1-Eya2 blk -16, PINK1 expr mod 2.6%&1.3%, TRPML1 ag -0.7&1.4, D2 agonist -3.4 and D2 PAM -19.
For COc1ccc(CN2CCN(CCCc3ccccc3)C(CCO)C2)c(OC)c1 (configuration not stated) the results were TRPML1 inh 3, Six1-Eya2 blk -3, PINK1 expr mod -0.3%, TRPML1 ag 1.1, D2 agonist -1.5 and D2 PAM -4.
S=C1NCN(C2CCCCC2)CN1c1ccccc1 was read as TRPML1 inh 9, Six1-Eya2 blk -8, PINK1 expr mod -1.0%, TRPML1 ag 0.1, D2 agonist 0.1 and D2 PAM -6.
Screening COC(=O)c1ccccc1CON1C(=O)C(C)(C)N(OCc2ccccc2C(=O)OC)C(=O)C1(C)C returned TRPML1 inh 6, Six1-Eya2 blk 1, PINK1 expr mod 2.0%[38.3 µM], TRPML1 ag 3.5, D2 agonist -1.3 and D2 PAM -4.
`O=C(O)Cn1nc(-c2ccccc2)ccc1=O` gave TRPML1 inh -9, Six1-Eya2 blk 14, PINK1 expr mod 0.8%, TRPML1 ag 0.5, D2 agonist -1.7 and D2 PAM -1.
Screening CCOC(=O)[C@H]1[C@H]2COc3ccc(Cl)cc3[C@@H]2N2C(=O)c3ccccc3NC(=O)[C@@]12C returned TRPML1 inh 43, Six1-Eya2 blk 1, PINK1 expr mod 2.3%, TRPML1 ag 1.1, D2 agonist -2.4 and D2 PAM -4.
`CCc1ccccc1N(CC(=O)NC(C)C)C(=O)CCC(=O)Nc1nccs1` gave TRPML1 inh -21, Six1-Eya2 blk -4, PINK1 expr mod 1.2%, TRPML1 ag -0.6, D2 agonist -5.3 and D2 PAM -2.
O=C(Nc1cccc([N+](=O)[O-])c1)C1CCN(C(=O)Cc2ccccc2)CC1 was read as TRPML1 inh -14, Six1-Eya2 blk -3, PINK1 expr mod 3.1%, TRPML1 ag -0.4, D2 agonist -4.3 and D2 PAM -38.
Screening COc1ccc(OCC(=O)NNC(=O)C2CCN(c3ncnc4sc(C)c(C)c34)CC2)cc1 returned TRPML1 inh -20, Six1-Eya2 blk -28, PINK1 expr mod -0.5%, TRPML1 ag 0.6, D2 agonist -4.0 and D2 PAM 0.
For Cc1ccn2cc(CNS(=O)(=O)c3ccc(Cl)s3)nc2c1 the results were TRPML1 inh 4, Six1-Eya2 blk -1, PINK1 expr mod 0.0%, TRPML1 ag -0.2, D2 agonist 1.5 and D2 PAM -7.
Screening Cc1oc(C(=O)O)cc1CSCc1ccoc1C(=O)O returned TRPML1 inh -13, Six1-Eya2 blk -13, PINK1 expr mod 0.2%, TRPML1 ag -0.4, D2 agonist -0.7 and D2 PAM 24.
Screening O=C(COc1ccc(Cl)cc1)NCCC1=CCCCC1 returned TRPML1 inh 0, Six1-Eya2 blk 9, TRPML1 ag 1.4, D2 agonist -1.1 and D2 PAM -10.
For COc1ccc(OCCC(=O)OCC(=O)Nc2cccc(S(=O)(=O)N3CCOCC3)c2)cc1 the results were TRPML1 inh 1, Six1-Eya2 blk 13, PINK1 expr mod -0.6%, TRPML1 ag -0.2, D2 agonist -2.5 and D2 PAM -14.
`CCOC(=O)CNC(=O)N1CCC(CCOc2ccccc2)(C(=O)OCC)CC1` gave TRPML1 inh 28, Six1-Eya2 blk 2, PINK1 expr mod -1.8%, TRPML1 ag 1.6, D2 agonist 11 and D2 PAM -6.
For CCC1CCC2(CC1)NC(=O)N(CC(=O)Nc1ccc(OC)c(Cl)c1)C2=O (configuration not stated) the results were TRPML1 inh 4, Six1-Eya2 blk 0, PINK1 expr mod 1.3%, TRPML1 ag -0.6, D2 agonist -0.2 and D2 PAM 3.
COc1ccccc1NC(=O)N(C)C[C@H]1Oc2cc(Br)ccc2S(=O)(=O)N([C@H](C)CO)C[C@H]1C was read as TRPML1 inh 10, Six1-Eya2 blk 9, PINK1 expr mod -2.2%, TRPML1 ag 0.7, D2 agonist -3.7 and D2 PAM -4.
`Cn1nnnc1SCCCNCc1ccc(Cl)cc1` gave TRPML1 inh 25, PINK1 expr mod -0.5% and TRPML1 ag -0.7.

Next section; the last 4 above are carried over.
`CCOC(=O)CNC(=O)N1CCC(CCOc2ccccc2)(C(=O)OCC)CC1` gave TRPML1 inh 28, Six1-Eya2 blk 2, PINK1 expr mod -1.8%, TRPML1 ag 1.6, D2 agonist 11 and D2 PAM -6.
For CCC1CCC2(CC1)NC(=O)N(CC(=O)Nc1ccc(OC)c(Cl)c1)C2=O (configuration not stated) the results were TRPML1 inh 4, Six1-Eya2 blk 0, PINK1 expr mod 1.3%, TRPML1 ag -0.6, D2 agonist -0.2 and D2 PAM 3.
COc1ccccc1NC(=O)N(C)C[C@H]1Oc2cc(Br)ccc2S(=O)(=O)N([C@H](C)CO)C[C@H]1C was read as TRPML1 inh 10, Six1-Eya2 blk 9, PINK1 expr mod -2.2%, TRPML1 ag 0.7, D2 agonist -3.7 and D2 PAM -4.
`Cn1nnnc1SCCCNCc1ccc(Cl)cc1` gave TRPML1 inh 25, PINK1 expr mod -0.5% and TRPML1 ag -0.7.
`CN(C)c1ccc(/C=N/NC(=S)NCc2ccccc2)cc1` gave TRPML1 inh 14, Six1-Eya2 blk inconclusive, PINK1 expr mod 1.7%, TRPML1 ag 3.5, D2 agonist 1.9 and D2 PAM -11.
Screening COC(=O)c1c(-c2ccc(C)cc2)csc1NC(=S)NC(=O)c1ccc(F)cc1 returned TRPML1 inh -19, Six1-Eya2 blk 1, PINK1 expr mod 11%, TRPML1 ag -0.2, D2 agonist -4.0 and D2 PAM -9.
Screening COC(=O)CC1C(C(=O)OC)ON2OC(C(=O)OC)C(C(=O)OC)C12 (configuration not stated) returned TRPML1 inh -9, Six1-Eya2 blk 4, PINK1 expr mod 0.3%, TRPML1 ag 0.2, D2 agonist -1.6 and D2 PAM -5.
For CN(C)c1ccc(/C=C2/C[N+](C)(C)C/C(=C/c3ccc(N(C)C)cc3)C2=O)cc1 the results were TRPML1 inh -6, Six1-Eya2 blk -8, PINK1 expr mod 1.7%, TRPML1 ag 1.7, D2 agonist -13 and D2 PAM -38.
`CCCCn1c(Cc2ccccc2)nnc1SCC(=O)Nc1cc(C)on1` gave TRPML1 inh 9, Six1-Eya2 blk -2, PINK1 expr mod -0.6%, TRPML1 ag -0.4, D2 agonist -4.4 and D2 PAM -7.
Screening CSc1nsc(SC)c1CO returned TRPML1 inh -10, Six1-Eya2 blk 5, PINK1 expr mod 0.3%, TRPML1 ag -0.4, D2 agonist -2.4 and D2 PAM -20.
`COCCn1c(C(C)C)nc2sc3ccccc3c(=O)c2c1=O` gave TRPML1 inh 7, Six1-Eya2 blk 2, PINK1 expr mod -0.3%[38.3 µM], TRPML1 ag -0.6, D2 agonist -2.0 and D2 PAM -11.
`CSc1nnc(C)c(=O)n1COC(=O)COc1ccccc1` gave TRPML1 inh -11, Six1-Eya2 blk 8, PINK1 expr mod 0.4%, TRPML1 ag 0.1, D2 agonist -2.5 and D2 PAM -20.
Screening CCC(=O)N1CCc2cc(Br)cc(S(=O)(=O)N3CCCC(C(=O)Nc4ccc(C(C)C)cc4)C3)c21 (configuration not stated) returned TRPML1 inh -10, PINK1 expr mod 1.6% and TRPML1 ag -0.5.
Screening CCOC(=O)c1ccc(NC(=O)c2c(N)n(Cc3ccccc3)c(=O)[nH]c2=O)cc1 returned TRPML1 inh 23, Six1-Eya2 blk 12, PINK1 expr mod 2.1%, TRPML1 ag 0.2, D2 agonist -1.1 and D2 PAM -5.
CC(C)c1nc2c(c(=O)c3ccccc3n2C)c(=O)n1-c1ccc(F)cc1 was read as TRPML1 inh 4, Six1-Eya2 blk -11, PINK1 expr mod 3.6%, TRPML1 ag 0.9, D2 agonist -4.3 and D2 PAM -21.
Screening c1ccc(OCc2nc3ccccc3s2)cc1 returned TRPML1 inh -1, Six1-Eya2 blk 19, PINK1 expr mod 0.2%[38.3 µM], TRPML1 ag 0.1, D2 agonist -1.1 and D2 PAM -9.
Screening CCCCOC(=O)Cn1cnc2ccc(Br)cc2c1=O returned TRPML1 inh 15, Six1-Eya2 blk 5, PINK1 expr mod 3.0%, TRPML1 ag -0.2, D2 agonist -2.6 and D2 PAM 0.
`O=C(CSc1nc2sc3c(c2c(=O)[nH]1)CCC3)NCCO` gave TRPML1 inh 10, Six1-Eya2 blk 6, PINK1 expr mod 1.0%, TRPML1 ag 0.7, D2 agonist -1.7 and D2 PAM -1.
Screening O=C(NC1CC1)c1ccc(COc2ccc(F)cc2)o1 returned TRPML1 inh 36, Six1-Eya2 blk 0, PINK1 expr mod -0.2%, TRPML1 ag -1.5, D2 agonist -3.0 and D2 PAM 7.
`Cc1nn(C)c(C)c1S(=O)(=O)NC1CCCC1` gave TRPML1 inh -27, Six1-Eya2 blk 12, PINK1 expr mod -3.7%, TRPML1 ag 2.0, D2 agonist 0.3 and D2 PAM -6.
`C=CCNC(=O)c1csc(-c2ccccc2)n1` gave TRPML1 inh 9, Six1-Eya2 blk -2, PINK1 expr mod 0.0%, TRPML1 ag -0.5, D2 agonist -1.3 and D2 PAM 7.
For CC1CCCC(NC(=O)COC(=O)CCC(=O)c2ccc(F)cc2)C1C (configuration not stated) the results were TRPML1 inh -11, Six1-Eya2 blk 14, PINK1 expr mod 1.9%, TRPML1 ag -0.5, D2 agonist 1.3 and D2 PAM -6.
For CCN1CCC(n2nccc2NC(=O)c2ccccc2Cl)CC1 the results were TRPML1 inh 64, Six1-Eya2 blk 7, PINK1 expr mod -0.1%, TRPML1 ag 0.8, D2 agonist -6.2 and D2 PAM -14.
Screening Brc1cccc(OCCN2CCCCC2)c1 returned TRPML1 inh -2, Six1-Eya2 blk 5, PINK1 expr mod 0.6%, TRPML1 ag -0.4, D2 agonist -3.4 and D2 PAM -19.
For O=C(c1cc2nc(-c3ccc(F)cc3)cc(C(F)(F)F)n2n1)N1CCOCC1 the results were TRPML1 inh 1, Six1-Eya2 blk 5, PINK1 expr mod 13%, TRPML1 ag -0.5, D2 agonist -0.2 and D2 PAM 4.
Screening CC(C)c1ccc(S(=O)(=O)N2CCN(CC(=O)Nc3ccc4c(c3)OCO4)CC2)cc1 returned TRPML1 inh 6, Six1-Eya2 blk -5, PINK1 expr mod -3.3%, TRPML1 ag 1.5, D2 agonist 2.0 and D2 PAM -1.
